RN4220 kill – S. aureus RN4220 growth inhibition; OD600, 16 h; inhibition, % (concentration not given with the values); actives 0.33% (n = 330,000);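 active means z-score of -3 or lower and OD600 up to 0.18 on both plates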;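 further: plate controls were untreated cells for no effect and reference antibiotic for full effect; stock transfer was 100 nL into about 80 µL; one replicate is shown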
PrP UTR inh – inhibition of PrP 5' UTR reporter expression. AID 488862. actives 0.35% (n = 340,000). inhibition, % (no concentration beside the values). cell-based PrP 5' UTR mRNA reporter, plate reader;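 active means every replicate at 50% or more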;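 further: 0 = median of the neutral control wells; tested in H4 reporter cells; numbers are from one replicate; inactives centre near -14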
Sa ugtP lethal – growth inhibition of S. aureus ugtP deletion strain | S. aureus RN4220 ugtP deletion, OD600 growth, 16 h; some inactives read as strong as hits | growth inhibition, % (concentration not given with the values) | actives 0.54% (n = 330,000) | AID 1259309;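 active means z-score under -3 and OD600 up to 0.15 on both plates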;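 further: plate controls were untreated wells for no effect and antibiotic for full effect; wells of about 80 µL received 100 nL stock; the first replicate is given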
Mtb hypoxia inh – inhibitors of hypoxia-regulated fluorescent reporter in Mycobacterium tuberculosis; fluorescence inhibition, % (test concentration not listed); M. tuberculosis hypoxia-regulated fluorescent reporter, fluorescence; actives 0.1% (n = 300,000);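 active means 35 to 45% if threefold the growth effect, above 45% if 1.5-fold the growth effect; inactive means the rest, general growth blockers included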;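 further: wells of about 50 µL received 100 nL stock; 0% = vehicle wells and 100% = reference inhibitor wells; whole bacteria with a GFP reporter of the hypoxia response; strong numbers were not always called active; many hits fall short of the cut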
BJeLR viability – kills HRASV12-expressing BJeLR cells | BJeLR (HRASV12) viability, CellTiter-Glo ATP luminescence, 48 h; reference of the scale not given here | inhibition, % (test concentration not listed) | actives 0.17% (n = 300,000) | AID 1554;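 active means replicate mean above 50%; inconclusive means above 50% but judged a plate artefact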;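 further: 50 nL library stock added to about 25 µL; numbers are from one replicate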
Bead autofluor – counter-screen for toxin protease inhibitors: compound fluorescence; compound autofluorescence counterscreen, microsphere flow cytometry; hits give high values; fluorescence intensity (test concentration not listed); actives 3.1% (n = 360,000);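 active means at least 3 SD above the mean of all compounds, about 16000 in these data; inconclusive means too few beads counted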;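 further: 100 nL of 1 mM stock went into each well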
Mtb hypoxia inh growth – also measured in Mtb hypoxia inh; calls as there; growth inhibition, %; measured here: M. tuberculosis growth (absorbance);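 0% = vehicle and 100% = reference antibiotic; read after six days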
An asterisk follows results filed as active; ? = inconclusive; . = no result given.

item	Molecule	RN4220 kill	PrP UTR inh	Sa ugtP lethal	Mtb hypoxia inh	Mtb hypoxia inh growth	BJeLR viability	Bead autofluor
1	N#Cc1ccc(NC(=O)CN2C(=O)NC(Cc3ccccc3)C2=O)cc1 (stereo not given)	1.0	-10	5	.	.	-1	4989
2	CCCn1c(SCC(=O)Nc2ccc(NC(C)=O)cc2)nc2c1c(=O)n(C)c(=O)n2C	2.8	-4	2	6	-3	6	3461
3	CCN(CC)S(=O)(=O)c1cccc(C(=O)NC(C(=O)NCCc2ccccn2)C(C)C)c1 (stereo not given)	2.3	-2	2	6	16	.	3911
4	Cc1oc2ccc(OCc3ccc(Br)cc3)cc2c1C(=O)O	4.3	-16	-11	-5	1	6	3291
5	c1ccc2c(CN3CCOCC3)csc2c1	9.0	-15	-4	1	2	-4	8621
6	Cn1c(N)c(C(=O)COC(=O)c2ccc3ccccc3c2)c(=O)n(C)c1=O	1.5	-18	-1	6	8	.	3427
7	CON=C1CCN(c2ncc(C(F)(F)F)cc2Cl)CC1	4.9	-28	4	6	12	15	19907*
8	COC(=O)C/C=N/N=C1/NC(=O)/C(=C/C(=O)O)S1	.	0	.	.	.	1	6368
9	CSc1ccccc1NC(=O)COC(=O)c1cnc(C)cn1	-1.9	0	1	6	5	.	6162
10	O=C(N/N=C/c1cc([N+](=O)[O-])ccc1Cl)c1ccc2nc[nH]c2c1	.	-24	.	.	.	16	3214
11	O=C(Cn1cc(S(=O)(=O)Cc2ccccc2F)c2ccccc21)N1CCOCC1	-0.3	-2	-4	3	8	8	5586
12	CNC(=O)N(O)C1N(N=Cc2cccnc2)C(=S)SC1(C)C (stereo not given)	4.0	.	11	5	4	.	.
13	CCN(CC)C(=O)COc1ccc(C(C)=NNc2ncc(Cl)cc2Cl)cc1	3.5	.	-3	4	5	.	.
14	COc1cccc(CN(C)C(=O)c2cccc(S(=O)(=O)NCc3ccccc3)c2)c1OC	1.6	-12	-1	-9	0	3	?
15	CCOC(=O)c1sc(NC(=O)CSc2ncn(-c3ccccc3)n2)nc1C	-1.4	-31	-6	3	4	2	4318
16	CSc1ccccc1NC(=O)c1ccc([N+](=O)[O-])cc1	-0.6	-8	3	-8	10	2	4176
17	CC(C)CCN1C(Nc2ccccc2)=NC[C@@H]1C	.	-13	.	.	.	-13	3641
18	CCCNCc1cc(OC)c(OCC(=O)Nc2ccccc2)cc1Br	7.8	-38	0	18	5	7	4051
19	COc1ccc(NC(=O)c2cn(-c3ccccc3)nc2-c2ccncc2)cc1	-5.7	-6	10	17	6	-1	4598
20	O=C(c1ccc(NS(=O)(=O)c2ccccc2)cc1)N1CCN(Cc2ccc3c(c2)OCO3)CC1	-4.3	-7	17	.	.	3	3995
21	CC(=O)Nc1ccc(NC(=O)CSc2n[nH]c(-c3cccs3)n2)cc1	4.0	-26	0	12	-4	4	6835
22	O=C(NCc1ccccc1)c1onc(CSc2ccc(F)cc2)c1C(=O)NCCCN1CCOCC1	-14	-7	-8	9	-1	1	3721
23	O=C(Nc1ccc([N+](=O)[O-])cc1)c1ccc(S(=O)(=O)N2CCCC2)cc1	0.1	-18	4	-3	-3	-5	3530
24	Cn1cccc1/C=C1\SC(=S)N(CC(=O)O)C1=O	2.6	-14	0	21	-1	.	7243
25	Cc1cccc(C)c1NC(=O)Cn1nnc(-c2ccc(N3CCOCC3)cc2)n1	5.8	-12	-16	-1	6	-2	20925*
26	Cc1cccc(C=NNC(=O)Cn2nccc2C)n1	-0.4	.	4	-3	6	.	.
27	CCn1ccnc1CN1CCN(CCC(C)C)C(CCO)C1 (stereo not given)	4.6	-9	4	12	1	4	4202
28	CC(C)(C)NC(=O)c1ccccc1NC(=O)C1CC(=O)N(C2CCCCC2)C1 (stereo not given)	-2.6	-22	0	-10	-5	3	3483
29	O=c1[nH]c(-c2ccccc2F)nc2c1sc(=S)n2Cc1ccccc1	10	-3	-3	1	5	10	2634
30	CCCNC(=O)c1ccc2c(=O)c(O)c(-c3ccc(Cl)c([N+](=O)[O-])c3)[nH]c2c1	.	-4	.	.	.	12	2662
31	O=C1NC(=O)N(c2ccc(Br)cc2)C(=O)/C1=C/c1ccsc1	3.6	-20	-2	0	-7	0	2568
32	CCOc1ccc(OCC)c(NC(=O)CN(c2ccc(C)cc2)S(=O)(=O)c2c(C)noc2C)c1	-0.3	-10	4	.	.	4	4525
33	CCOC(=O)c1c(C)[nH]c(C(=O)OCC(=O)N2CCCC2=O)c1C	-0.6	-18	3	1	6	-3	6227
34	O=C(c1cc(S(=O)(=O)N2CCCCC2)c(Cl)cc1N1CCOCC1)N1CCOCC1	-12	-16	-1	7	4	4	3312
35	CCN(c1ccc(NC(=O)c2ccc(Cl)nc2)cc1)C(C)C	6.1	-15	3	13	6	18	4161
36	COc1ccc(NC(=O)CC(NC(C)c2ccccc2)C(=O)O)cc1 (stereo not given)	2.5	-15	12	4	1	0	5005
37	CCCCNC(=O)COC(=O)c1cc(F)c(F)cc1Cl	3.5	-8	7	19	18	5	23808*
38	O=C(CCC(=O)N1CCN(C2CCCCC2)CC1)Nc1nnc(C(F)(F)F)s1	-12	-23	-1	10	8	2	2426
39	CCN(CC(=O)NC(C)C)C(=O)[C@H](C)NC(=O)c1ccc(Br)cc1	6.6	-15	3	18	3	6	4586
40	COc1ccc(C2=NOC3(CC(=O)N(c4ccc5ccccc5c4)C3=O)C2)c(OC)c1 (stereo not given)	2.8	-12	10	6	-2	18	17080*
41	O=C(Nc1ccccc1)Nc1cc([N+](=O)[O-])ccc1F	29	-14	7	2	-6	4	10726
42	Cc1ccc(Oc2nc3ccccn3c(=O)c2/C=C(\C#N)C(=O)Nc2c(C)n(C)n(-c3ccccc3)c2=O)cc1	4.2	-13	3	2	13	6	2148
43	O=C(Cc1cccs1)Nc1cc(SCCO)cc([N+](=O)[O-])c1	8.1	-17	-7	9	11	1	2057
44	CCCOc1ccc(NC(=O)CC2C(=O)N(CC)C(=S)N2CCCN2CCN(Cc3ccccc3)CC2)cc1 (stereo not given)	5.6	-11	1	-11	4	17	4358
45	COc1ccc(Br)cc1C(=O)NN=Cc1ccc2c(c1)n(C)c(=O)n2C	0.2	.	-3	-14	-12	.	.
46	Cc1noc(NC(=O)c2ccccc2)c1C#N	3.7	0	2	.	.	3	2937
47	Cn1c(=O)oc2ccc(C(=O)CSc3nnnn3-c3ccccc3)cc21	1.9	-14	-10	5	4	.	19593*
48	c1ccc(CCC2CCCCN2Cc2nc(-c3ccc4c(c3)OCO4)no2)nc1 (stereo not given)	13	2	-65	14	4	0	4737
49	CCOC(=O)C(NC(=O)c1ccccc1)(N1CCCC1=O)C(F)(F)F (stereo not given)	0.8	-6	6	.	.	5	3956
50	O=C1c2ccccc2NC(c2ccccc2)N1NS(=O)(=O)c1ccccc1 (stereo not given)	24	-15	1	9	3	-5	2127
51	O=C(COc1ccc(S(=O)(=O)NC2CCCC2)cc1)N1CCCCCC1	2.8	-24	3	.	.	2	3069
52	CC(=O)c1cnc(-c2cccc(Cl)c2)s1	16	-46	5	-2	7	.	4199
53	O=C(NCc1ccccc1F)C1CCCN1C(=O)Nc1cccc(F)c1 (stereo not given)	0.0	-1	1	-4	-7	-7	3057
54	Cc1ccc(-c2noc(CN(C(=O)Cc3ccccc3)C(C)C)n2)cc1	2.3	-8	23	3	5	-3	19931*
55	O=C(c1ccccn1)c1conc1C(=O)c1ccc(Br)cc1	20	-26	10	5	4	6	8272
56	O=S(=O)(NC(=S)NC1CCCCC1)c1ccccc1	.	-11	.	.	.	1	3222

The list continues.
item	Molecule	RN4220 kill	PrP UTR inh	Sa ugtP lethal	Mtb hypoxia inh	Mtb hypoxia inh growth	BJeLR viability	Bead autofluor
57	CCC(=O)c1ccccc1OCCCCn1cncn1	1.9	-33	2	7	-6	-1	.
58	O=C(CSc1n[nH]c(=O)[nH]c1=O)Nc1ccc2c(c1)C(=O)c1ccccc1C2=O	7.0	-24	9	11	12	-5	3948
59	CC1=N/C(=C\c2ccc([N+](=O)[O-])cc2)C(=O)N1c1cc(Cl)ccc1C	6.8	-20	0	14	0	0	4794
60	O=C(COC(=O)/C=C/c1cccc(Cl)c1)Nc1ccc2[nH]c(=O)[nH]c2c1	0.4	-18	3	-6	-2	-2	4954
61	CC(C)CCn1c(=O)c2ccccc2n2c(CN(C)Cc3ccccc3)nnc12	-1.5	-4	6	5	5	-16	3706
62	COc1ccc(-c2n[nH]c3c2CN(C(=O)c2ccc(OC)c(OC)c2)CC3)cc1	3.4	-16	4	2	0	35	5584
63	COc1ccccc1NC(=O)c1ccc2nc(-c3ccccc3)c(-c3ccccc3)nc2c1	2.2	-20	19	4	2	-3	20872*
64	CCCc1[nH]nc2c1C(c1cccc(OC(=O)c3ccco3)c1)C(C#N)=C(N)O2 (stereo not given)	8.9	-9	-2	16	8	-10	7800
65	Cc1ccc(NC(=O)C(=O)NCC2CCCN2S(=O)(=O)c2cccs2)c(C)c1 (stereo not given)	-1.5	-19	-1	-6	8	4	?
66	C/C(=N\NC(=O)c1c(C)nc2ccccn12)c1ccc(O)cc1O	.	34	.	.	.	10	5110
67	COc1ccc(CNc2nc(-c3ccccc3)nn2C(=O)c2ccc([N+](=O)[O-])cc2)cc1	1.4	-25	1	-2	2	7	2541

Compounds shown so far containing fluorine (nine):
item	Molecule	RN4220 kill	PrP UTR inh	Sa ugtP lethal	Mtb hypoxia inh	Mtb hypoxia inh growth	BJeLR viability	Bead autofluor
7	CON=C1CCN(c2ncc(C(F)(F)F)cc2Cl)CC1	4.9	-28	4	6	12	15	19907*
11	O=C(Cn1cc(S(=O)(=O)Cc2ccccc2F)c2ccccc21)N1CCOCC1	-0.3	-2	-4	3	8	8	5586
22	O=C(NCc1ccccc1)c1onc(CSc2ccc(F)cc2)c1C(=O)NCCCN1CCOCC1	-14	-7	-8	9	-1	1	3721
29	O=c1[nH]c(-c2ccccc2F)nc2c1sc(=S)n2Cc1ccccc1	10	-3	-3	1	5	10	2634
37	CCCCNC(=O)COC(=O)c1cc(F)c(F)cc1Cl	3.5	-8	7	19	18	5	23808*
38	O=C(CCC(=O)N1CCN(C2CCCCC2)CC1)Nc1nnc(C(F)(F)F)s1	-12	-23	-1	10	8	2	2426
41	O=C(Nc1ccccc1)Nc1cc([N+](=O)[O-])ccc1F	29	-14	7	2	-6	4	10726
49	CCOC(=O)C(NC(=O)c1ccccc1)(N1CCCC1=O)C(F)(F)F (stereo not given)	0.8	-6	6	.	.	5	3956
53	O=C(NCc1ccccc1F)C1CCCN1C(=O)Nc1cccc(F)c1 (stereo not given)	0.0	-1	1	-4	-7	-7	3057

Exported in transposed form: entries from further up.
(62) COc1ccc(-c2n[nH]c3c2CN(C(=O)c2ccc(OC)c(OC)c2)CC3)cc1
(63) COc1ccccc1NC(=O)c1ccc2nc(-c3ccccc3)c(-c3ccccc3)nc2c1
compound no. | 62 | 63
RN4220 kill | 3.4 | 2.2
PrP UTR inh | -16 | -20
Sa ugtP lethal | 4 | 19
Mtb hypoxia inh | 2 | 4
Mtb hypoxia inh growth | 0 | 2
BJeLR viability | 35 | -3
Bead autofluor | 5584 | 20872*

Compound activity as filed in PubChem BioAssay.
